High-throughput results as filed in PubChem BioAssay.
Vaccinia Venus: qHTS for Stage-Specific Inhibitors of Vaccinia Orthopoxvirus: Venus Reporter Primary qHTS; Vaccinia virus Venus reporter expression, fluorescence; Potency, µM (doses to about 36.5 µM), for inactives: at the highest dose activity change, negative = inhibition, hits mostly inhibitors; 330,000 tested, 0.46% active; AID 720580, 2013; active means well fitted inhibition curve with a large enough effect; inconclusive means small, poorly fitted or top-dose-only effect; inactive means no such curve, though single readings can be large or run the other way; tested in A549 cells; further: nearly all actives have a fitted effect of over 30% in size; inactives centre near -10
Vaccinia mCherry: qHTS for Stage-Specific Inhibitors of Vaccinia Orthopoxvirus: mCherry Reporter Primary qHTS; AID 720579, 2013; 310,000 tested, 0.63% active; Potency, µM (titrated, usually from 36.5 µM), without a hit: at the highest dose activity change, negative = inhibition, usual class: inhibitors; Vaccinia virus mCherry reporter infection, fluorescence; about a quarter of the inactives have no number; active = well fitted inhibition curve with a large enough effect; inconclusive = small, poorly fitted or top-dose-only effect; inactive = no such curve, though single readings can be large or run the other way; tested in A549 cells; further: nearly all actives have a fitted effect of over 35% in size; inactives centre near -10
The depositor's hits bear a star; i = inactive; ? = inconclusive; . = no result given; [ ] = another dose, or the depositor's remark. On the % scale 0 is the no-effect control and ±100 the full control effect; potency means the concentration at half of the fitted maximal effect.

SMILES | Vaccinia Venus | Vaccinia mCherry
O=c1[nH]c2cc(Cl)c(Cl)cc2o1 | -1% | i
O=C(Cn1c(=O)n(-c2ccc(Cl)cc2)c(=O)c2oc3ccccc3c21)Nc1ccccc1 | -9% | -12%
CN(C)C(=O)C1Cc2ccccc2CN1S(=O)(=O)c1cccs1 (stereo not drawn) | -2% | 0%
CC(C)OC(=O)C(C(=O)C(F)(F)F)c1cc(NS(=O)(=O)c2ccc3c4c(cccc24)C(=O)N3)ccc1O (stereo not drawn) | -2% | -9%
CC(=O)c1c(C)[nH]c(C(=O)OCC(=O)Nc2sc3c(c2C#N)CCC(C)C3)c1C (stereo not drawn) | -14% | -7%
CC(C)(C)NC(=O)C1c2ccccc2OCC(=O)N1Cc1ccccn1 (stereo not drawn) | 8% | i
O=C(NCc1cccnc1)C1COc2ccccc2O1 (stereo not drawn) | -12% | -15%
CCN(C(=O)N1CCOCC1)c1ccccc1 | -7% | -15%
Cn1c(=O)c2c(-c3ccccc3)n(-c3cc([N+](=O)[O-])ccc3O)cc2n(C)c1=O | 0% | i
O=C(NCCCNC(=O)c1ccco1)c1ccc(Cl)c(Cl)c1 | 11% | 10%
Clc1ccc(C=NN2CCCCCC2)cc1Cl | -17% | -24%
Cc1ccc(C)c(-c2ccc(=O)n(Cc3c(F)cccc3Cl)n2)c1 | -13%[7.34 µM] | -11%[7.34 µM]
CCOC(=O)C1CCN(c2cc(=O)n(Cc3ccc(F)cc3)c(=O)[nH]2)CC1 | 7% | -13%
Cc1onc(-c2ccc(Cl)cc2Cl)c1-c1csc(N/N=C/c2ccccc2Cl)n1 | -30% | -26%
O=C(Nc1nnc(-c2cccs2)o1)C1CC1 | 0% | -12%
N#Cc1cccc(NC(=O)c2cc(C3CCCCN3C(=O)c3cccs3)on2)c1 (stereo not drawn) | -13% | -3%
Cc1ccc(N2C(=O)CC(Sc3ncn[nH]3)C2=O)cc1C (stereo not drawn) | -1% | -11%
O=C(Nc1nnc(SCc2ccc(F)cc2)s1)C1CC(=O)N(c2ccc3c(c2)OCCO3)C1 (stereo not drawn) | -5% | -9%
COc1ccc(C(=O)NNC(=O)c2snnc2C)cc1 | 0% | -29%
CC(C)N1CCN(c2ccc(S(=O)(=O)N3CCOCC3)cn2)CC1 | -12% | -16%
O=C(CCl)Nc1cccc(Oc2ccccc2)c1 | -2% | -6%
Cc1cccc(NC(c2nnc(-c3ccccc3)o2)c2ccc(F)cc2Cl)c1C (stereo not drawn) | -2% | -6%
COc1ccc(-c2cc(NC=O)c3ncc(-c4cccc(OC)c4)n3c2)cc1 | -18% | -4%
COc1ccc(NC(=O)COC(=O)CO/N=C(\C)c2ccc3c(c2)OCO3)cc1S(N)(=O)=O | -6% | -13%
O=C(CN1C(=O)COc2ccc(S(=O)(=O)N3CCCC3)cc21)N1CCN(c2ccc(Cl)cc2)CC1 | -9% | -20%
CCOc1ccc2nc(NC(=O)CSc3nc(-c4ccccc4)c(C#N)c(=O)[nH]3)sc2c1 | 1% | -3%
CCCN(Cc1nnc(-c2ccccc2Cl)o1)C(=O)c1cc(S(=O)(=O)N2CCOCC2)ccc1F | -19% | -5%
CC1(/[N+]([O-])=C/c2ccc(Cl)cc2Cl)CCCCC1=O (stereo not drawn) | -10%[7.34 µM] | ?
NC(=O)c1ccc(NC(=O)CSC2=Nc3ccccc3C3CC=NN23)cc1 (stereo not drawn) | -6% | -11%
CC(C)CNc1cc(N2CCCC2)ccc1[N+](=O)[O-] | -20% | -6%
COc1ccc(NC(=S)N2CCC(NC(=O)c3ccc(OC)cc3)CC2)cc1 | 1% | -3%
O=C(NCc1ccccc1)c1cc(C2COCCN2C(=O)c2ccc3c(c2)CCO3)on1 (stereo not drawn) | -15% | i
Cc1nn(-c2ccc(N3CCCC3)nn2)c(C)c1CCC(=O)NCc1ccccc1F | -7% | -9%
COc1cc(C2C(=O)N(C3CCCCCC3)CC(=O)N2CCc2ccccc2)ccc1OC(C)C (stereo not drawn) | -5% | -9%
Cc1scc(C(=O)N/N=C/c2ccc(OC(C)C)cc2)c1C | -1% | -11%
Cc1cc(C)c(S(=O)(=O)n2cnc3ccccc32)c(C)c1 | 0% | i
CCCCn1nnnc1C(c1cc2ccccc2o1)N1CCN(c2ccncc2)CC1 (stereo not drawn) | -2% | -9%
COC(=O)c1c(-c2ccc(SC)cc2)sc2ccccc12 | 0% | -6%
CNC(=O)c1cc2cc(Cc3ccccc3Cl)ccc2oc1=O | -3% | -13%
Cc1c(Cl)cccc1NC(=O)Cc1ccc([N+](=O)[O-])cc1 | -6% | -20%
CCN(CC(=O)Nc1cccc(OC)c1)CC(=O)Nc1cccc2ccccc12 | -17% | ?
CCN(CC)S(=O)(=O)c1cccc(C(=O)N/N=C/c2ccc([N+](=O)[O-])o2)c1 | ? | ?
S=C(NCCCN1CCOCC1)NN=C1c2ccccc2-c2ccccc21 | -19% | -8%
C[C@H]1CC2C3CC=C4C[C@@H](O)CC[C@]4(C)C3CC[C@]2(C)[C@H]1O (stereo partly drawn) | -6% | -17%
C[C@H](CO)N1C[C@H](C)[C@H](CN(C)Cc2ccc(Oc3ccccc3)cc2)Oc2cc(Br)ccc2S1(=O)=O | -16% | -5%
O=C1c2oc3ccccc3c(=O)c2C(c2cccc(F)c2)N1CCCO (stereo not drawn) | ? | .
CN1CCN(C(=O)c2cccc(-c3cccc4nccn34)c2)CC1 | -8% | 32%[activator]
CCOc1ccc(NC(=O)c2c(NC(=O)Cc3ccccc3)sc3c2CCCCC3)cc1 | ? | ?
CCN(CC)C(=O)N1CCn2c(nc3ccccc32)C1 | -3% | .
N#CC(=C1C=C(Br)C(=NO)C=C1Cl)c1ccc(Cl)cc1 | -17% | -15%
CCCNC(=O)NCCc1ccncc1 | -10% | -9%
COc1ccc(NC(=O)c2cncn2-c2ccccc2)cc1 | -4% | -16%
Cc1cc(-c2nnc(-c3cccc(Cl)c3)o2)no1 | 1%[7.34 µM] | i[7.34 µM]
COc1ccccc1OC(C)C(=O)N1CCN(Cc2ccc3c(c2)OCO3)CC1 (stereo not drawn) | -4% | 9%
CC(C)N(Cc1ccco1)/N=C/c1c(O)n(Cc2ccccc2)c(=O)[nH]c1=O | -20%[7.34 µM] | -2%[7.34 µM]
CCC/C=C/c1ccc(CN2C(C(C)C)C(=O)N(Cc3cn(CCOCOC)nn3)CCS2(=O)=O)cc1 (stereo not drawn) | -10% | i
CN(C)c1ccnc2sc3c(SCc4ccc(Cl)cc4)ncnc3c12 | -2% | i
COc1cccc(C2CC(c3cccs3)=NN2S(C)(=O)=O)c1 (stereo not drawn) | -9% | -1%
COc1cccc(CNC(=O)c2cc(S(=O)(=O)N3CCCCC3)cn2C)c1 | -2% | -15%
CC(C)Oc1ccc(CNC(=O)c2cccc(NC(=O)N3CCSc4ncccc43)c2)cc1 | -15% | -14%
(more compounds)
SMILES | Vaccinia Venus | Vaccinia mCherry
Cc1ccc(CNC(=O)Cn2c(=O)n(Cc3ccccc3)c(=O)c3c2c2cc(C)ccc2n3C)cc1 | -1% | 4%
CC(C)[C@H](NC(=O)OCc1ccccc1)C(=O)OCC(=O)NCCc1ccccc1 | -22% | -4%
CCOC(=O)c1cc2c(=O)n3ccccc3nc2n(CC2CCCO2)c1=NC(=O)c1ccc(F)cc1 (stereo not drawn) | -2% | 1%
CC(C)c1ccc(CN2C(=O)NC3(CCCCCC3)C2=O)cc1 | -23% | -6%
CNC(=S)NC1CC2CCCC(C1)N2Cc1ccccc1OC (stereo not drawn) | -4% | -8%
O=C(CSc1nccn1-c1ccccc1)NO | 2% | -21%
COc1cccc(NC(=O)c2nn(-c3ccc(C)cc3)c(=O)n(C)c2=O)c1 | -5% | -5%
COC(=O)c1ccc(/C=C/C(=O)c2ccc(OC)c(OC)c2)cc1 | ? | .
Cc1cccc2nc(CSc3nc4[nH]ncc4c(=O)n3-c3cccc(Cl)c3)cc(=O)n12 | -21% | -2%
CN1C[C@@H]2C(c3ccc(C(F)(F)F)cc3)C3(c4ccc(C#N)cc4)CC2(C3)[C@H]1c1ccccc1 (stereo partly drawn) | -13% | ?
O=C(Nc1ccccn1)C1CCN(S(=O)(=O)c2ccc3ccccc3c2)CC1 | -10% | -10%
O=C(c1cc(COc2ccc(F)cc2F)on1)N1CC2C[C@@H]3CC1C[C@H](C2)C3 | -11% | -17%

Single records (already shown):
O=C(Nc1ccccn1)C1CCN(S(=O)(=O)c2ccc3ccccc3c2)CC1 across the screens: Vaccinia Venus = -10%; Vaccinia mCherry = -10%
CC(C)[C@H](NC(=O)OCc1ccccc1)C(=O)OCC(=O)NCCc1ccccc1 across the screens: Vaccinia Venus = -22%; Vaccinia mCherry = -4%

New compounds follow
SMILES | Vaccinia Venus | Vaccinia mCherry
CC(=O)Nc1ccc(S(=O)(=O)NCCSc2ccccn2)cc1 | -13% | -14%
CN(C)S(=O)(=O)Oc1ccsc1C(=O)Nc1ccc(Cl)c(Cl)c1 | -23% | -14%
Cc1ccc(NC(=O)c2ncn(CC(=O)NCc3ccccc3)n2)cc1C | -1% | i
Cc1cccc(-c2cccc(NC(=O)C3CCCN(Cc4cccnc4)C3)c2)c1 (stereo not drawn) | ? | -26%
N#Cc1cccc(NC(=O)CSc2nnc(-c3n[nH]c4ccccc34)o2)c1 | -7% | i
CCN(CC(=O)Nc1ccc(NC(C)=O)cc1)C(=O)c1c(C)nn(-c2ccc(F)cc2)c1Cl | -14% | -7%
Cc1ccc(NC(=O)C2CCN(C(=O)N3CCOc4ccccc43)CC2)cc1 | -4% | -26%
C[C@H](CO)N1C[C@H](C)[C@H](CN(C)C(=O)N[C@H](C)c2ccccc2)OCc2ccccc2-c2c(n(C)c3ccccc23)C1=O | -27% | -19%
CCOC(=O)C1CCN(S(=O)(=O)c2c(C(=O)N3CCCCC3)c(C)n(C)c2C)CC1 | -6% | i
COc1ccc(C(=O)C2CCN(CC(=O)Nc3ccccc3F)CC2)cc1 | -6% | -29%
CCCCOc1ccccc1NC(=O)c1ccco1 | -17% | .
CCc1nnc(NC(=O)C2CCC(CNc3c(N4CCC(C)CC4)c(=O)c3=O)CC2)s1 (stereo not drawn) | 6% | -1%
Cc1c(C(=O)NC2CC(C)(C)NC(C)(C)C2)oc2c(Cl)cccc12 | -26% | -5%
CC(C)C(C)(C#N)NC(=O)CSc1nc2scc(-c3ccco3)c2c(=O)n1-c1ccccc1 (stereo not drawn) | -8% | -17%
Cc1ccc(CNC(=O)CSc2cc(C)[nH]c(=O)n2)cc1 | 3% | -12%

Of the compounds above, these have an aryl thioether with sulfur outside any ring.
SMILES | Vaccinia Venus | Vaccinia mCherry
Cc1ccc(N2C(=O)CC(Sc3ncn[nH]3)C2=O)cc1C (stereo not drawn) | -1% | -11%
O=C(Nc1nnc(SCc2ccc(F)cc2)s1)C1CC(=O)N(c2ccc3c(c2)OCCO3)C1 (stereo not drawn) | -5% | -9%
CCOc1ccc2nc(NC(=O)CSc3nc(-c4ccccc4)c(C#N)c(=O)[nH]3)sc2c1 | 1% | -3%
COC(=O)c1c(-c2ccc(SC)cc2)sc2ccccc12 | 0% | -6%
CN(C)c1ccnc2sc3c(SCc4ccc(Cl)cc4)ncnc3c12 | -2% | i
O=C(CSc1nccn1-c1ccccc1)NO | 2% | -21%
Cc1cccc2nc(CSc3nc4[nH]ncc4c(=O)n3-c3cccc(Cl)c3)cc(=O)n12 | -21% | -2%
CC(=O)Nc1ccc(S(=O)(=O)NCCSc2ccccn2)cc1 | -13% | -14%
N#Cc1cccc(NC(=O)CSc2nnc(-c3n[nH]c4ccccc34)o2)c1 | -7% | i
CC(C)C(C)(C#N)NC(=O)CSc1nc2scc(-c3ccco3)c2c(=O)n1-c1ccccc1 (stereo not drawn) | -8% | -17%
Cc1ccc(CNC(=O)CSc2cc(C)[nH]c(=O)n2)cc1 | 3% | -12%
